Screening data as filed in PubChem BioAssay.
RGS16-Gao HTS – RGS16-Galphao interaction regulator (human); hit rate 0.38% among 220,000; AID 1441; bead-based flow cytometry RGS16-Galphao binding, fluorescence; actives lie on both sides; binding response (% of control), % at 10 µM;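 active = below 25% or above 175%, edge rows of some plates excepted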;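 also: Galphao activated by GDP with aluminum fluoride before binding; 100% = wells without compound and 0% = beads without RGS; some results beyond the cut were filed as inactive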
Target sequence (O15492 whole entry, looked up): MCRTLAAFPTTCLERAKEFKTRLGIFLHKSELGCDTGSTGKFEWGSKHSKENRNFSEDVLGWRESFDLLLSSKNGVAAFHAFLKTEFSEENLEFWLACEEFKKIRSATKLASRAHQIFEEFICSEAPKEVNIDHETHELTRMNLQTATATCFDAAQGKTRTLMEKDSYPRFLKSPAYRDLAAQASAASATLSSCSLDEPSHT
Target sequence (P09471 whole entry, looked up): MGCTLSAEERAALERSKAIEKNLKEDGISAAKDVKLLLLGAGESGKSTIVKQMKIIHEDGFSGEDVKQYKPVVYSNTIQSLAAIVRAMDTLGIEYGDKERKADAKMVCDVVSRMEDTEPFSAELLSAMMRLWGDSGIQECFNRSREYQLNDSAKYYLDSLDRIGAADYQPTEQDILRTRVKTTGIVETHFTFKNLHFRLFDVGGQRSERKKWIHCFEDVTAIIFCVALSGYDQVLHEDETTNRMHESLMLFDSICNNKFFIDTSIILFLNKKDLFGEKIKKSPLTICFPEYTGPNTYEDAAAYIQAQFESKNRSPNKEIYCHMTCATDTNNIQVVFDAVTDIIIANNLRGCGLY
HSV replic up – HSV replication enhancement | HSV replication augmentation in cells, fold increase | maximum fold increase | hit rate 0.005% among 220,000 | AID 1956;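 active = peak rise of 1.5-fold or more in the series; inconclusive = self-fluorescent or not available for retest; tested in PC3 cells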;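 also: first round at 10 µM; read as green reporter fluorescence; hits show the peak of a series up to 25 µM; 1 = signal of infected wells without compound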
PKD1 inh – PKD1 (human) kinase inhibition. PKD1 kinase fluorescence polarization assay. inhibition, %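 (about 10 µM by stock and volumes)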. hit rate 0.056% among 200,000. Q15139;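 active = inhibition of 50% or more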;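 also: controls were vehicle for no effect and a reference inhibitor for full effect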
GALR2 ag – agonists of human galanin receptor 2 (GALR2). O43603. GALR2-expressing cells, agonist activation read-out. activation, %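 (tested at 5 µM)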. hit rate 0.48% among 140,000. AID 803;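 active = above mean plus 3 SD of all compounds, about 5% in these data, not always enough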;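 also: 0% = vehicle buffer wells and 100% = reference agonist at full effect; tested in CHO reporter cells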
Target sequence (O43603 whole entry, looked up): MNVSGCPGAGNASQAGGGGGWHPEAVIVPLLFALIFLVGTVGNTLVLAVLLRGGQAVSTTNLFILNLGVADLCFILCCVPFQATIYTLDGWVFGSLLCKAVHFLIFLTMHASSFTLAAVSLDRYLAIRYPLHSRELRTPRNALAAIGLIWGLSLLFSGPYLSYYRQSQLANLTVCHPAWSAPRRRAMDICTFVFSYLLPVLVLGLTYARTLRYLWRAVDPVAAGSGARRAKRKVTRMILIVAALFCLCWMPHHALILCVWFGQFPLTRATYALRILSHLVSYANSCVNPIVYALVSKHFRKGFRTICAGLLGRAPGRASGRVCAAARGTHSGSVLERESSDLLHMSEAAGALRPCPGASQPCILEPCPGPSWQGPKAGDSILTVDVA
Insulin prom inh – TRM-6 insulin promoter activity inhibition; hit rate 0.9% among 130,000; inhibition, % at 2 µM; AID 1273; TRM-6 cells (human fetal islet line), insulin promoter-eGFP reporter, imaging; reporter expression induced with tamoxifen;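 active = inhibition above the mean plus 3 SD, with well images judged a real hit on visual review, cut at about 60% in these data, passing the limit was not always enough; inconclusive = inhibition over the cutoff but images rejected on review; inactive = inhibition not above the cutoff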
Insulin prom inh cell count – further read-out of Insulin prom inh, marked with its call; normalized cell count, %; measured here: cell count, toxicity; reference of the scale not given here;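 cells exposed to compound for 48 h; stained nuclei by imaging scaled within each plate; lower means fewer cells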
HSV replic up primary fold – further read-out of HSV replic up, marked with its call; fold increase; compound at 10 µM; measured here: primary screen fold increase 10 uM; tested in PC3 cells;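 GFP signal in the first replicate; 1 = infected wells without compound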
Numbers without * were called inactive.

Screening C#CCOCCOCCOCCNc1nc(N2CCN(C(=O)[C@H](Cc3ccc(O)cc3)n3cc([C@@H](N)CC(C)C)nn3)CC2)nc(N2CCN(C(=O)[C@H](Cc3cc4ccccc4[nH]3)n3cc([C@@H](N)CC(C)C)nn3)CC2)n1 returned RGS16-Gao HTS 99.4, HSV replic up inactive, PKD1 inh 11.3 and HSV replic up primary fold 0.65.
Screening CSc1cc(-c2ccccc2)n(Cc2c(Cl)cccc2Cl)c(=O)c1C#N returned RGS16-Gao HTS 88.5, HSV replic up inactive, PKD1 inh -2.6, GALR2 ag -0.4, Insulin prom inh 25.0, Insulin prom inh cell count 75.4 and HSV replic up primary fold 0.96.
COc1ccc(OC)c(NC(=O)c2cc3c(=O)n4ccccc4nc3n2C)c1 was read as RGS16-Gao HTS 95.0, HSV replic up inactive, PKD1 inh 6.4, Insulin prom inh 35.7, Insulin prom inh cell count 85.4 and HSV replic up primary fold 0.89.
Screening O=C(Cc1ccccc1)c1nc2ccccc2s1 returned RGS16-Gao HTS 106.2, HSV replic up inactive, PKD1 inh 8.9, GALR2 ag -1.4, Insulin prom inh 23.1, Insulin prom inh cell count 90.2 and HSV replic up primary fold 0.93.
`O=C(NCCCl)Nc1ccc(Cl)c([N+](=O)[O-])c1` gave RGS16-Gao HTS 100.2, HSV replic up inactive, PKD1 inh 1.4 and HSV replic up primary fold 1.03.
O=C(/C=C/c1ccc(F)cc1)NC(=S)N1CCN(c2ccccn2)CC1 was read as RGS16-Gao HTS 93.5, HSV replic up inactive and HSV replic up primary fold 1.
For O=[N+]([O-])c1cc(C(F)(F)F)ccc1NN=C1CCCC1 the results were RGS16-Gao HTS 108.6, HSV replic up inactive, PKD1 inh 0.4, GALR2 ag 0.6, Insulin prom inh 21.9, Insulin prom inh cell count 170.9 and HSV replic up primary fold 1.02.
`CCCS(=O)(=O)NCc1cn2cccc(C)c2n1` gave RGS16-Gao HTS 99.3, HSV replic up inactive, PKD1 inh -6.7, GALR2 ag 0.1, Insulin prom inh 0.0, Insulin prom inh cell count 93.9 and HSV replic up primary fold 1.16.
For Cc1ccc(-c2cc(C(F)F)nc(N3CCC(C)CC3)n2)cc1 the results were RGS16-Gao HTS 77.5, HSV replic up inactive, PKD1 inh -7.5, GALR2 ag -1.6, Insulin prom inh -21.6, Insulin prom inh cell count 78.9 and HSV replic up primary fold 1.
Screening C=C(C)CSc1nc2nc(C)c(Br)cc2[nH]1 returned RGS16-Gao HTS 108.7, HSV replic up inactive, PKD1 inh 0.4, GALR2 ag -0.4, Insulin prom inh 79.3*, Insulin prom inh cell count 117.4* and HSV replic up primary fold 1.34.
`O=C(O)c1cccc(-c2ccc(/C=N/Nc3ccc([N+](=O)[O-])cc3)o2)c1` gave RGS16-Gao HTS 99.6 and HSV replic up inconclusive.
`COC(=O)c1ccc2nc(C)cc(Nc3ccc(N(C)C)cc3)c2c1` gave RGS16-Gao HTS 96.6, PKD1 inh -2.1, GALR2 ag -2.1, Insulin prom inh 51.2 and Insulin prom inh cell count 109.7.
`O=C(CSc1nnc(COc2ccc3c(c2)CCCC3)o1)Nc1ccc(F)cc1` gave RGS16-Gao HTS 106.3, HSV replic up inactive, PKD1 inh -2.6, GALR2 ag -2.0, Insulin prom inh 33.3, Insulin prom inh cell count 138.9 and HSV replic up primary fold 0.79.
For COc1ccc(-c2nc(Cn3c(SCc4ccccc4F)nc4ccncc43)c(C)o2)cc1 the results were RGS16-Gao HTS 100.9, HSV replic up inactive, PKD1 inh -3.1, GALR2 ag -2.7 and HSV replic up primary fold 0.74.
For CCc1ccc(-c2nc(CSCC(=O)NCc3ccco3)c(C)o2)cc1 the results were RGS16-Gao HTS 95.0, HSV replic up inactive, PKD1 inh -5.5, Insulin prom inh 40.0, Insulin prom inh cell count 103.9 and HSV replic up primary fold 0.97.
`S=C1NCCOCCOCCOCCN1` gave RGS16-Gao HTS 96.0, HSV replic up inactive, PKD1 inh -7.1, GALR2 ag -3.0, Insulin prom inh 2.7, Insulin prom inh cell count 91.0 and HSV replic up primary fold 0.99.
CC(=O)N1CCc2c(sc(NC(=O)CN3C(=O)CCC3=O)c2C(N)=O)C1 was read as RGS16-Gao HTS 99.3, HSV replic up inactive, PKD1 inh 2.6, GALR2 ag 0.0, Insulin prom inh -28.6, Insulin prom inh cell count 130.8 and HSV replic up primary fold 0.73.
For Cc1cc2nc(CSc3ccc(Cl)cc3)cc(=O)n2[nH]1 the results were RGS16-Gao HTS 99.7, HSV replic up inactive, PKD1 inh -2.8, Insulin prom inh -2.3, Insulin prom inh cell count 76.1 and HSV replic up primary fold 1.2.
For Cc1cccc(C)c1NC(=O)COC(=O)c1cc(-c2cccnc2)nc2ccccc12 the results were RGS16-Gao HTS 110.5, HSV replic up inactive, PKD1 inh -7.3, GALR2 ag -2.1 and HSV replic up primary fold 0.93.
Screening CC1N=C(N)C(c2nc3ccccc3n2C)=C1O (configuration not stated) returned RGS16-Gao HTS 93.0, HSV replic up inactive, PKD1 inh 0.2 and HSV replic up primary fold 0.95.
`Cc1ccc(S(=O)(=O)NN=C2C3CC4CC(C3)CC2C4)cc1[N+](=O)[O-]` gave RGS16-Gao HTS 96.3, HSV replic up inactive, PKD1 inh -9.0, GALR2 ag -1.0 and HSV replic up primary fold 1.03.
O=C(N/N=C/c1sc(N2CCOCC2)nc1-c1ccccc1)c1cccc(S(=O)(=O)N2CCCC2)c1 was read as RGS16-Gao HTS 106.3 and PKD1 inh -4.3.
Screening COc1ccc(OC)c(NC(=O)C2C(C(=O)O)C3(Cl)C(Cl)=C(Cl)C2(Cl)C3(Cl)Cl)c1 (configuration not stated) returned RGS16-Gao HTS 110.4, HSV replic up inactive, PKD1 inh 3.8, Insulin prom inh 20.0, Insulin prom inh cell count 88.4 and HSV replic up primary fold 1.05.
For Cc1cc(C)n(CC2CC(=O)N(c3ccc(Cl)c(Cl)c3)C2=O)n1 (configuration not stated) the results were RGS16-Gao HTS 222.8, HSV replic up inactive, PKD1 inh -4.9, GALR2 ag -2.4, Insulin prom inh 3.0, Insulin prom inh cell count 88.4 and HSV replic up primary fold 0.953.
`Cc1ccccc1NC(=O)/C(=C/c1ccccc1)c1ccccc1` gave RGS16-Gao HTS 111.7, HSV replic up inactive, PKD1 inh -4.4, GALR2 ag 0.0, Insulin prom inh 25.8, Insulin prom inh cell count 98.1 and HSV replic up primary fold 0.94.
For CCc1nnc(NC(=O)CSc2nnc(-c3ccc(S(=O)(=O)N4CCCC4)cc3)n2CC)s1 the results were RGS16-Gao HTS 105.2, HSV replic up inactive, PKD1 inh -10.1, GALR2 ag -2.5, Insulin prom inh 6.7, Insulin prom inh cell count 127.7 and HSV replic up primary fold 0.84.
`O=S(=O)(c1ccc(NC(=S)NCc2ccco2)cc1)N1CCCC1` gave RGS16-Gao HTS 108.8, HSV replic up inactive, PKD1 inh -7.8, GALR2 ag 0.1, Insulin prom inh 7.9, Insulin prom inh cell count 79.2 and HSV replic up primary fold 0.95.
Screening COC(=O)Nc1ccc(S(=O)(=O)NCCO)cc1 returned RGS16-Gao HTS 102.0, HSV replic up inactive, PKD1 inh 1.2, GALR2 ag -1.4 and HSV replic up primary fold 1.08.
Screening CCCN1C(=O)/C(=N\OCC(=O)NCC(F)(F)F)c2ccccc21 returned RGS16-Gao HTS 104.8, HSV replic up inactive, PKD1 inh -0.3, GALR2 ag 0.4, Insulin prom inh -37.0, Insulin prom inh cell count 105.3 and HSV replic up primary fold 0.97.
For CCOc1ccc(/C(O)=C2/C(=O)C(=O)N(c3ncccn3)C2c2ccccc2)cc1 (configuration not stated) the results were RGS16-Gao HTS 107.2, HSV replic up inactive, PKD1 inh -0.9, GALR2 ag -2.5, Insulin prom inh 42.9, Insulin prom inh cell count 99.3 and HSV replic up primary fold 0.93.

Compounds above that contain a CF3 group (two):
For O=[N+]([O-])c1cc(C(F)(F)F)ccc1NN=C1CCCC1 the results were RGS16-Gao HTS 108.6, HSV replic up inactive, PKD1 inh 0.4, GALR2 ag 0.6, Insulin prom inh 21.9, Insulin prom inh cell count 170.9 and HSV replic up primary fold 1.02.
Screening CCCN1C(=O)/C(=N\OCC(=O)NCC(F)(F)F)c2ccccc21 returned RGS16-Gao HTS 104.8, HSV replic up inactive, PKD1 inh -0.3, GALR2 ag 0.4, Insulin prom inh -37.0, Insulin prom inh cell count 105.3 and HSV replic up primary fold 0.97.

(next part)
`Cc1ccc(N2CC(C(=O)Nc3nccs3)CC2=O)cc1` (configuration not stated) gave RGS16-Gao HTS 112.4, HSV replic up inactive, PKD1 inh -4.0, GALR2 ag -0.2, Insulin prom inh 18.8, Insulin prom inh cell count 96.5 and HSV replic up primary fold 0.98.
`Cc1cc(C)nc(-n2nc(C)cc2NC(=O)CN2CCc3ccccc3C2)n1` gave RGS16-Gao HTS 98.9, HSV replic up inactive, PKD1 inh -25.1, GALR2 ag -1.8, Insulin prom inh 0.0, Insulin prom inh cell count 43.9 and HSV replic up primary fold 0.9.
`CCOC(=O)c1ccc2c(c1)nc(SC/C(O)=C(\C#N)c1nc3ccccc3[nH]1)n2CC` gave RGS16-Gao HTS 102.8, HSV replic up inactive, PKD1 inh -2.9, GALR2 ag -0.8, Insulin prom inh -7.1, Insulin prom inh cell count 124.8 and HSV replic up primary fold 0.78.
For Cc1ccc(C)n1-c1nn(S(=O)(=O)c2cccc3cccnc23)c2cccc(F)c12 the results were RGS16-Gao HTS 99.5, HSV replic up inactive and HSV replic up primary fold 1.04.
Screening Cc1onc(-c2ccccc2)c1C(=O)Nc1cccnc1 returned RGS16-Gao HTS 110.7, HSV replic up inactive, PKD1 inh -15.2, GALR2 ag -1.7 and HSV replic up primary fold 0.997.
For Cc1cc2nc(-c3ccc(SCC(=O)Nc4ccc5c(c4)OCCO5)nc3)[nH]c2cc1C the results were RGS16-Gao HTS 101.4, HSV replic up inactive, PKD1 inh 3.4, GALR2 ag -0.5, Insulin prom inh 54.8, Insulin prom inh cell count 89.7 and HSV replic up primary fold 0.7.
Screening Cc1c(NC(=O)C(C)N2C(=O)c3ccccc3C2=O)c(=O)n(-c2ccccc2)n1C (configuration not stated) returned RGS16-Gao HTS 101.6, HSV replic up inactive, PKD1 inh 6.8, GALR2 ag -1.8, Insulin prom inh 32.3, Insulin prom inh cell count 119.9 and HSV replic up primary fold 0.99.
`COC(=O)c1[nH]c2cc(OC)ccc2c1NC(=O)CN1CCC(C(N)=O)CC1` gave RGS16-Gao HTS 100.3, HSV replic up inactive, PKD1 inh 12.1, GALR2 ag -1.6, Insulin prom inh 15.6, Insulin prom inh cell count 142.4 and HSV replic up primary fold 0.9.
`CC(=O)c1sc(C(C)(C)C)cc1NC(=O)CCC(=O)O` gave RGS16-Gao HTS 107.8, HSV replic up inactive and HSV replic up primary fold 1.36.
`Cc1cc(C)nc(NC(=S)Nc2ccc(Br)cc2Cl)c1` gave RGS16-Gao HTS 105.8, HSV replic up inactive, PKD1 inh -3.2, Insulin prom inh 6.7, Insulin prom inh cell count 85.7 and HSV replic up primary fold 0.81.
For N#CCCn1cc(C(=O)Nc2ccc(C(=O)O)cc2)c(-c2cccs2)n1 the results were RGS16-Gao HTS 95.5, HSV replic up inactive, PKD1 inh -1.3, Insulin prom inh -64.7, Insulin prom inh cell count 143.1 and HSV replic up primary fold 1.01.
`Cc1ccc(CN2CCN(Cc3ccon3)CC2CCO)cc1` (configuration not stated) gave RGS16-Gao HTS 101.8, HSV replic up inactive, PKD1 inh 3.0 and HSV replic up primary fold 1.19.
`COC(=O)C(Cc1ccc(O)cc1)NC(=O)CCC(=O)Nc1ccc(S(N)(=O)=O)cc1` (configuration not stated) gave RGS16-Gao HTS 71.1, HSV replic up inactive, PKD1 inh -15.7, GALR2 ag -1.6, Insulin prom inh -54.5, Insulin prom inh cell count 135.5 and HSV replic up primary fold 0.72.
`CCn1c(NC(=O)Nc2cccc(C)c2C)cc2sccc21` gave RGS16-Gao HTS 89.9, PKD1 inh -5.6 and GALR2 ag -3.1.
CC(=O)Nc1ccc(NC(=O)CCn2cnnn2)cc1 was read as RGS16-Gao HTS 104.1, HSV replic up inactive, PKD1 inh 0.2, Insulin prom inh 41.7, Insulin prom inh cell count 99.3 and HSV replic up primary fold 0.97.
O=C(NC1CCCCC1)C1CCN(S(=O)(=O)N2CCOCC2)CC1 was read as RGS16-Gao HTS 101.9, HSV replic up inactive, PKD1 inh -7.2, GALR2 ag -2.0, Insulin prom inh 7.7, Insulin prom inh cell count 89.6 and HSV replic up primary fold 1.03.
`CC(C)(C)c1ccc(-c2nnc(SC3CCOC3=O)n2Cc2ccccc2)cc1` (configuration not stated) gave RGS16-Gao HTS 31.6, HSV replic up inactive, PKD1 inh -4.3, GALR2 ag -0.1, Insulin prom inh 35.7, Insulin prom inh cell count 81.1 and HSV replic up primary fold 1.09.
